# Beta2AR agonist: activates human beta-2 adrenergic receptor causing internalization; AID 504454; P07550; response, % (test concentration not listed); 340,000 tested, 0.43% active; Am2.2-beta2AR cells, FAP receptor internalization, flow cytometry; reference of the scale not given here;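 active = response above a set limit, near 3 SD of response in nonfluorescent compounds, cut at about 42% in these data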;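 note: stock transfer was 100 nL into about 11 µL; a reference agonist was the positive control; negative values mostly stem from fluorescent compounds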
# LANA-H2A inh: blocks KSHV LANA binding to histone H2A/H2B | inhibition, % (test concentration not listed) | cell-free LANA-H2A/H2B peptide, fluorescence polarization | 320,000 tested, 0.6% active | AID 2629; in the data active = inhibition mostly above about 10%, no sharp cut-off; inactive = mostly below about 6.7%;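 note: stock transfer was 7.5 nL into about 10 µL; 0% = median of vehicle wells and 100% = median of positive control wells; one replicate is shown; the record names a cut of 25% in any replicate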
# Target sequence (Q9QR71 whole entry, looked up): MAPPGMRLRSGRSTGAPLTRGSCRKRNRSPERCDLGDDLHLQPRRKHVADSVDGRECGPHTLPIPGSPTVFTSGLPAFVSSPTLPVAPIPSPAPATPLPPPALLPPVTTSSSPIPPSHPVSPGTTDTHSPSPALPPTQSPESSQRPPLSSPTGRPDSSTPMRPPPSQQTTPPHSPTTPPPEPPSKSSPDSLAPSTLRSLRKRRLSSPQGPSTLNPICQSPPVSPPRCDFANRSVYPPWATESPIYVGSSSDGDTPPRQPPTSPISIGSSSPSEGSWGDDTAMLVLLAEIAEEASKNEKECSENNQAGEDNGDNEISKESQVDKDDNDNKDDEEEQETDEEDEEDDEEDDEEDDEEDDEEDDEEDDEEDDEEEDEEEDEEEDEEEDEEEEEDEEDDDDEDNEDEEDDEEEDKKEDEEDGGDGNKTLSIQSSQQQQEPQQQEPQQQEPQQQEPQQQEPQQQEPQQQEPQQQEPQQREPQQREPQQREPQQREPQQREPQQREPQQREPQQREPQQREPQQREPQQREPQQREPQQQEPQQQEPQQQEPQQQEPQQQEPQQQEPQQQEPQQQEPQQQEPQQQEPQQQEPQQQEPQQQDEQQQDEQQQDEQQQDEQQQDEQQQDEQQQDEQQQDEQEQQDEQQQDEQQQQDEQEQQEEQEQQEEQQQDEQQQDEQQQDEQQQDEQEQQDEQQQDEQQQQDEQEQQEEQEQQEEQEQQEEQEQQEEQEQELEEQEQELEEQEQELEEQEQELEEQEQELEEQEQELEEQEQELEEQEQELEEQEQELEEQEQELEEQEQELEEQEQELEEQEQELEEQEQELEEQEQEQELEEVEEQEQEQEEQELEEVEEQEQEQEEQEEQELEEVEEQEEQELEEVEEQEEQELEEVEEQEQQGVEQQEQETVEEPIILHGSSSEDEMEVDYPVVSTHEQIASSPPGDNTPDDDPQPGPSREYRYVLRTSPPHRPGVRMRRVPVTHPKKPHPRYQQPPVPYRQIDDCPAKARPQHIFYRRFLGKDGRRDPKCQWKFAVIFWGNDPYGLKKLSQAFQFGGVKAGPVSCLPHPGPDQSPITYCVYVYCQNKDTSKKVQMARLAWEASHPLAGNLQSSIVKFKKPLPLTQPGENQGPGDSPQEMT
# HNF4A DNA FP: change in binding of human HNF4 alpha to DNA | HNF4a-FITC DNA binding, fluorescence polarization, 1 h | activity change, % at 10 µM | 360,000 tested, 0.3% active; in the data active = activity change above about 30%, passing the limit was not always enough;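 note: controls were the assay level and a saturating level of protein; the project sought stronger binding though the title names inhibitors; some compounds called inactive have numbers as strong as hits; positive values seem to mean higher polarization but the record does not say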
# RanGTP-Impb inh: disruptors of Ran-importin-beta complex formation – biochemical, FRET, CFP-Ran, YFP-importin-beta, homogeneous, primary screen; cell-free CFP-Ran/YFP-importin-beta FRET ratio; inhibition, % (concentration not given with the values); 300,000 tested, 1.1% active; AID 2216;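 active = most replicates above 15%; inconclusive = exactly half above 15%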;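 note: 0% = DMSO wells and 100% = Ran loaded with GDP instead of GTP; wells of about 40 µL received 100 nL stock; the first replicate is given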
# Vif TR-FRET: inhibitors of Vif binding to APOBEC3G peptide, primary screen, biochemical, TR-FRET, GST-Vif 1-94, biotin-A3G peptide, dose response retest (AID 1117319); TR-FRET GST-Vif / biotin-A3G peptide binding; higher % means a stronger effect; test concentration not given here; strong numbers were not always called active; inhibition, %; hits with a dose series show IC50 in µM; 260,000 tested, 0.57% active;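 active = above the screen mean plus three standard deviations and confirmed in dose response; inconclusive = results disagree or hit not tested in dose response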;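 note: Vif residues 1-94 fused to GST binding biotinylated APOBEC3G peptide 110-148; 0% = full assay without inhibitor and 100% = GST in place of GST-Vif; retest series ran down from 100 µM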
# Calb FLC: affects C. albicans growth with fluconazole; C. albicans CaCi-2 (fluconazole-resistant clinical isolate) + fluconazole, Alamar Blue growth, 48 h; growth inhibition, % (no concentration beside the values); 300,000 tested, 0.57% active;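 active = most replicates above 75%; inconclusive = exactly half above 75%; inactive = most below 75%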;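 note: all wells also contain fluconazole at 8 µg/ml as a sub-toxic cotreatment; 0% = median of DMSO wells and 100% = median of geldanamycin control wells; wells of about 8 µL received 7.5 nL stock; the first replicate is given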
# ALR H2O2 inh: human ALR oxidase inhibition via reduced H2O2. purified ALR, DTT oxidation, H2O2 HRP-luminol luminescence. inhibition, % (no concentration beside the values). 290,000 tested, 3.8% active. AID 485317;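 active = mean and each replicate at 75% or more; inconclusive = only one of the two met; inactive = neither met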;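 note: stock transfer was 7.5 nL into about 7.5 µL; 0% = neutral wells and 100% = wells with inactivated enzyme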
# An asterisk follows results filed as active; ? = inconclusive; / = no result given.
SMILES,Beta2AR agonist,LANA-H2A inh,HNF4A DNA FP,RanGTP-Impb inh,Vif TR-FRET,Calb FLC,ALR H2O2 inh
CCCCC(=O)N/N=C/c1ccc(-c2ccc([N+](=O)[O-])cc2)o1,8,2.9,2.5,-19,0%,17,-1
O=C(NCc1nc2ccccc2[nH]1)C1=C[C@@H](c2ccc(Br)cc2)C[C@@H](OCCCCO)O1,3,-0.6,-2.8,1.7,-7%,12,-3
Cc1[nH]c2ccccc2c1/C=N/Nc1nc(Nc2ccccc2)nc(N2CCOCC2)n1,16,-4.8,0.9,-2.0,14%,33,22
CCc1ccc(-c2nc(SCC(=O)N(CC)C3CCS(=O)(=O)C3)n[nH]2)cc1 (stereo not given),-5,/,-1.0,0.5,-2%,0,/
CCOC(=O)c1nnn2c1nc(SCC(C)=O)c1ccccc12,-5,0.6,0.4,-8.8,7%,2,88*
COc1cc(C(=O)NCC(c2ccccc2)N(C)C)ccc1OCc1c(C)noc1C (stereo not given),2,1.1,-2.0,/,/,/,/
CC(C)C(=O)Nc1ccc2c3c(cccc13)CC2,-12,23*,0.0,-2.1,3%,5,/
Cc1ccc(CC(=O)Nc2ccc(C(=O)N3CCOCC3)cc2)cc1,0,-6.8,7.1,-3.1,/,-3,-4
CCCCN(CC)CCNC(=O)CN1C(=O)COc2ccc(S(=O)(=O)N3CCCC3)cc21,3,-2.8,-1.8,0.4,/,1,-4
CS(=O)(=O)c1ccccc1-c1nc(-c2cc(C(F)(F)F)cc(C(F)(F)F)c2)no1,-12,-1.2,-0.3,4.1,?,6,-3
O=C(O)CSc1nnc(-c2ccncc2)n1Cc1ccccc1,-1,-2.8,1.6,1.4,6%,-1,11
CCCCCC1CC(=O)N(Cc2ccc(Cl)cc2)C(=O)N1 (stereo not given),-7,0.3,0.9,-1.3,3%,20,-4

# Grouped by structure, the entries above containing an aryl thioether with sulfur outside any ring (3)
SMILES,Beta2AR agonist,LANA-H2A inh,HNF4A DNA FP,RanGTP-Impb inh,Vif TR-FRET,Calb FLC,ALR H2O2 inh
CCc1ccc(-c2nc(SCC(=O)N(CC)C3CCS(=O)(=O)C3)n[nH]2)cc1 (stereo not given),-5,/,-1.0,0.5,-2%,0,/
CCOC(=O)c1nnn2c1nc(SCC(C)=O)c1ccccc12,-5,0.6,0.4,-8.8,7%,2,88*
O=C(O)CSc1nnc(-c2ccncc2)n1Cc1ccccc1,-1,-2.8,1.6,1.4,6%,-1,11

# Remaining list, next part.
SMILES,Beta2AR agonist,LANA-H2A inh,HNF4A DNA FP,RanGTP-Impb inh,Vif TR-FRET,Calb FLC,ALR H2O2 inh
Cc1ncc(/C=C2\C(=O)Nc3ccccc32)[nH]1,0,0.5,/,0.5,-9%,4,-1
COc1ccccc1C(=O)OCC(=O)Nc1ccc(OC(F)F)cc1,3,0.6,0.2,-0.6,9%,-14,-8
O=C(NNC(=O)c1ccc(Br)s1)c1cccc(Cl)c1,1,0.9,-0.2,/,-7%,/,2
Cc1ccc(C(C(=O)NC2CCCC2)N(Cc2ccccc2)C(=O)c2csnn2)o1 (stereo not given),1,0.6,3.5,?,/,3,-2
S=c1[nH]nc(-c2ccco2)n1/N=C/c1ccccc1Cl,-5,-0.5,1.2,4.2,17%,35,3
CC(C(=O)Nc1cc(C(F)(F)F)ccc1N1CCOCC1)N1C(=O)C2CCCCC2C1=O (stereo not given),2,3.6,3.0,/,11%,/,-2
O=C(CN1C(=O)/C(=C/c2ccco2)SC1=S)Nc1ccc(C(=O)O)c(O)c1,-7,4.5,-14,2.8,/,4,12
O=[N+]([O-])c1ccc(Sc2nccn2Cc2ccccc2)cc1,-16,0.9,3.9,1.5,2%,11,-3
COc1ccc(Cc2noc(CN(C)CC(O)c3ccccc3)n2)cc1OC (stereo not given),1,-0.3,0.2,5.6,/,2,-6
Cc1cc(C(=O)OCC(=O)N2c3ccccc3CC2C)c(C)o1 (stereo not given),4,4.6,-0.7,-0.8,1%,3,13
Cc1ccc(C2=NN(C(=O)CCl)C(c3ccco3)C2)o1 (stereo not given),1,/,0.3,0.5,/,8,/
COC(=O)c1ccc(S(=O)(=O)c2ccccc2)c(N)c1,0,-0.7,5.2,-2.4,-3%,12,-1
Cc1cc(C)nc(NCC(O)COc2ccccc2C)n1 (stereo not given),-9,1.0,-2.2,4.4,?,7,0
COc1ccc(C(C#N)N2CCC(c3ccccc3)=N2)cc1 (stereo not given),2,-1.4,0.8,-1.5,2%,-26,0
O=C(CCCc1ccccc1)Nc1ccccn1,-5,0.4,0.8,0.1,-5%,-5,-5
O=C(NCCN1CCOCC1)C(=O)NCC1OCCCN1S(=O)(=O)c1ccc(F)cc1 (stereo not given),3,1.5,1.3,-1.6,/,2,-12
Cc1cccc(NC(=O)N2CCCCCC2)c1,1,-1.4,1.4,0.2,/,-7,-2
COCCNC(=O)c1cc2c(=O)n(C)c3ccccc3c2n1C,-2,0.4,-3.0,?,-1%,-2,15
COc1ccc(S(=O)(=O)N2CCSC2C)cc1C (stereo not given),1,5.3,-1.8,-1.8,-4%,-11,-3
CC1CCCC(NC(=O)CSc2cccc[n+]2[O-])C1C (stereo not given),-4,-3.0,-2.6,/,/,/,-7
CCC(=O)c1ccc(OC)c(OC)c1O,-11,1.5,1.2,-1.2,0%,13,-19
COc1ccc(/C=N\NC(=O)CC(=O)Nc2cccc(Cl)c2)cc1OC,-6,4.8,0.2,0.0,1%,1,-2
CCCN1CCN(C(=O)CS(=O)(=O)Cc2nc(-c3cccc(OC)c3)oc2C)CC1,-3,-3.2,2.3,2.1,/,4,19
COc1cccc(-n2c(C)nn(C)c2=O)c1,-4,-6.8,2.0,?,0%,19,-16
Cc1ccc(C(C)C)c(OCc2nnc(SCC(=O)Nc3ncc(C)s3)n2C)c1,-5,-2.4,2.8,-1.2,3%,-4,-7
CCCCCOC(=O)Cc1c(C)nc(-c2ccccc2)[nH]c1=O,-1,-0.8,3.2,-0.7,0%,3,1
CS(=O)(=O)c1ccc2c(c1)sc1nc(=O)c(/C=C3/C=CC(=O)C(O)=C3)c(N)n12,-39,1.7,27,14,?,-6,90*
C=CCN(c1ccccc1)S(=O)(=O)c1cccc(C(=O)Nc2cc(C)ccn2)c1,6,0.9,-1.1,-1.1,5%,-6,9
Cn1nnnc1Sc1ncnc2scc(-c3cccc(C(F)(F)F)c3)c12,6,0.5,1.9,/,/,/,10
COc1ccc(S(=O)(=O)N2CCOCC2)cc1NC(=O)CN1C(=O)NC(C)(C2CC2)C1=O (stereo not given),-1,0.4,-0.1,/,-9%,/,/
CC1=C(CO)C(=O)OC([C@@H](C)C2CC[C@H]3C4C[C@H]5O[C@]56[C@@H](O)C=CC(=O)[C@]6(C)C4CC[C@]23C)C1 (stereo not given in full),22,1.9,3.3,-3.1,/,23,6
CC1CC(c2ccccc2)n2nc(NC(=O)c3ccco3)nc2N1 (stereo not given),-10,-3.8,3.8,0.9,-1%,2,21
CN(CCCNC(=O)C1CCC(CNS(=O)(=O)c2ccccc2)CC1)Cc1ccccc1 (stereo not given),4,3.2,-1.5,1.1,/,-5,0
O=C(c1cc(-c2ccccc2)nc2ccccc12)N1CCN(C2CCS(=O)(=O)C2)CC1 (stereo not given),-10,4.7,4.5,/,-3%,/,-2
COc1ccc(S(=O)(=O)Nc2cccc3c2O[C@H](CN(C)S(=O)(=O)c2ccc(Cl)cc2)[C@H](C)CN([C@H](C)CO)C3=O)cc1,-15,0.3,3.5,/,/,/,0
COc1ccc(OC)c(C(=O)CSc2nnc(-c3cccnc3)n2C)c1,-7,2.5,-5.1,-2.2,3%,6,11
CCN(Cc1ccncc1)C(=O)c1cccc(S(=O)(=O)N2CCOCC2)c1,-6,0.4,1.4,1.4,-1%,-3,-5
CN(C)C1=NC[C@H](Cc2ccccc2)N1CC1CCCCCC1,-3,4.1,-0.3,/,/,/,-21
CCOc1ccc(C(=O)NCC(=O)OCc2cc(C(C)=O)ccc2OC)cc1,7,0.0,-5.7,-1.3,14%,?,-9
CC(CCc1ccccc1)NC(=O)c1ccc(C(=O)NC(C)CCc2ccccc2)cc1 (stereo not given),-2,-3.7,0.2,/,1%,/,-11
O=C(c1ccncc1)c1ccc(N2CCN(C3CC(=O)N(Cc4cccs4)C3=O)CC2)cc1 (stereo not given),11,1.7,3.2,-1.4,13%,0,/
CCc1nn(CC(=O)N2CCC(C(N)=O)CC2)c(=O)c2cc3occc3n12,5,-3.0,2.4,-1.4,/,-5,2
CCc1ccc(S(=O)(=O)N2CC(=O)Nc3ccccc32)cc1,2,-5.9,0.3,1.0,2%,-1,2
CC(Sc1nc(N)cc(=O)[nH]1)C(=O)Nc1cccc(Cl)c1 (stereo not given),6,3.9,-2.2,-13,2%,-15,-8
COc1ccccc1NC(=O)CCCN1C(=O)C(c2ccccc2)Oc2cccnc21 (stereo not given),3,-3.4,0.2,0.0,-1%,-4,-1
Cc1ccc(S(=O)(=O)NN2C(=O)c3ccccc3NC2c2ccccc2O)cc1 (stereo not given),-6,3.6,-0.4,0.4,3%,0,-3
Cc1cc(C(=O)NN)n[nH]1,12,0.8,-2.7,-4.6,/,-9,32
CCn1c(-c2ccc(N)cc2)nc2ccccc21,-19,6.7,1.9,2.3,-4%,-6,92*
CCOc1ccc(-c2cc(CCCC(=O)Nc3cccc(OC)c3)no2)cc1,-10,0.7,2.9,27*,-2%,2,-5
COc1ccc(CC(=O)Nc2ccccc2NC(=O)c2ccco2)cc1OC,-10,1.4,-0.9,3.8,-9%,-10,-12
Cc1sc2nc(SCC(=O)NCCCO)n(-c3ccccc3)c(=O)c2c1C,-1,-4.4,-0.6,2.7,/,1,2
CSc1ccccc1N1CCN(C(=O)Nc2ccc3c(c2)NC(=O)CO3)CC1,13,0.3,-1.8,-3.4,33%,-11,-6
O=C(CN1CC(c2ccccc2)CC1=O)N/N=C/c1cc(Br)ccc1O (stereo not given),0,0.5,3.9,1.9,/,4,/
CC(C)Sc1nc2ncnc(N)c2[nH]1,-7,3.9,0.5,0.0,-5%,-2,0
O=C(Nc1ccc2c(c1)OCO2)c1cc2ncc(Br)cn2n1,9,/,-14,-2.3,7%,-13,/
Cc1ccc(S(=O)(=O)c2cc3c(=O)n4ccccc4nc3n(C)c2=N)cc1C,17,-1.4,3.4,173*,/,-23,-3
c1ccc(-n2ncc3c(N4CCCCC4)ncnc32)cc1,-13,-4.4,3.0,-1.2,-6%,-9,/
CCC(C)(C)NC(=O)C(c1ccccc1Cl)N(C(=O)CCC(=O)Nc1cc(C)on1)C(C)(C)C (stereo not given),-2,-8.7,-0.2,8.5,/,4,-6
CC(=O)/C(N=Nc1nc2c([nH]1)c(=O)n(C)c(=O)n2C)=C(\C)O,-2,-0.2,2.0,6.0,16%,-25,1
Cc1ccc(-n2ncc3c(=O)n(CC(=O)N4CCCc5ccccc54)cnc32)cc1C,20,/,0.3,1.4,-5%,1,/
# The list continues.
SMILES,Beta2AR agonist,LANA-H2A inh,HNF4A DNA FP,RanGTP-Impb inh,Vif TR-FRET,Calb FLC,ALR H2O2 inh
COc1cccc(N2CCN(c3ccc4nnc(CCC(=O)Nc5cccc(C(C)=O)c5)n4n3)CC2)c1,0,5.8,0.0,0.1,1%,7,-1
Cc1csc(=O)n1CC(=O)OC(C)C(=O)Nc1cccc(Cl)c1 (stereo not given),-3,-2.0,-1.3,1.4,1%,3,-2
Cc1ccc(Sc2ncccc2C(=O)NCc2cc([N+](=O)[O-])ccc2O)cc1C,9,-0.6,3.0,1.7,-3%,35,89*
C=CCC(=O)N1CCCC(CCC(=O)NCc2ccccc2F)C1 (stereo not given),-7,-8.6,-2.9,1.2,7%,4,-9
CC1(C)CC(=O)C2=C(C1)Nc1ccccc1NC2c1ccccc1F (stereo not given),-4,-0.7,-7.1,0.1,?,3,98*

# Look-ups from the list:
# `CC1(C)CC(=O)C2=C(C1)Nc1ccccc1NC2c1ccccc1F` (stereo not given) in ALR H2O2 inh is listed with 98*
# `Cc1csc(=O)n1CC(=O)OC(C)C(=O)Nc1cccc(Cl)c1` (stereo not given) in Beta2AR agonist is listed with -3
